Screening data (PubChem)
miR-21 FLuc – qHTS Assay for Modulators of miRNAs and/orActivators of miR-21; Potency, µM (doses to about 38.3 µM), inactives show at the highest dose reporter change, positive = more light; 340,000 tested, under 10 active; HeLa miR-21 FLuc reporter, luciferase, 48 h; active = well fitted rising curve with a large enough effect; inconclusive = small, poorly fitted or top-dose-only effect; inactive = no such curve, though single readings can be large or run the other way;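 further: % of control where 0% means no effect; miR-21 action dims this reporter so a rising signal means less miR-21 action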
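HeLa cells endogenously expressing miR-21, stably carrying CMV-driven firefly luciferase with a downstream miR-21 binding site, 2000 cells/well. Titrations up to approximately 40 uM, 48 hours; luciferase luminescence read.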
GLA inh pH 4.5 – qHTS Assay for Inhibitors of Human alpha-Galactosidase at pH 4.5 | Alpha-galactosidase A (Homo sapiens), P06280 | purified enzyme, 4-MU-alpha-Gal fluorescence, pH 4.5 | activity change, negative = inhibition, % at 105 µM | 230,000 tested, under 10 active | AID 1467, 2008; inconclusive = small, poorly fitted or top-dose-only inhibition, or a rising curve; inactive = flat fitted curve, though single readings scatter; no compound was filed as active;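 further: 0% = full activity with enzyme and -100% = basal without enzyme; dose as in the result columns while the protocol names 77 µM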
Rango release inh – qHTS Assay for Inhibitors of RanGTP induced Rango (Ran-regulated importin-beta cargo) - Importin beta complex dissociation | actives 0.071% (n = 340,000) | Snurportin-1 (Homo sapiens) + GTP-binding nuclear protein Ran (Homo sapiens) + Importin … | Potency, µM (titrated, usually from 46.1 µM), inactives show at the highest dose activity change, negative = inhibition | Biochemical FRET Rango-importin beta, RanGTP-induced dissociation | AID 540253, 2011; active means falling FRET ratio curve, often poorly fitted, with flat reads before Ran was added; inconclusive means other falling curves, or compound fluorescence or quenching; inactive means flat or rising ratio curve;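 further: potency means the concentration at half of the fitted maximal effect; % of control where 0% means no effect; nearly all actives have a fitted effect of over 45% in size; -100% = wells without RanGTP and RCC1; the record marks most hits as doubtful in a second field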
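Compounds preincubate 5 min with complex of recombinant Rango and importin beta in PBS with 1 mM DTT. Ran (0.6 uM) loaded with 2 mM GTP plus 0.2 uM RCC1 starts dissociation; FRET is recorded 45 min later.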
Rango-impB inh – qHTS Assay for Inhibitors of Rango (Ran-regulated importin-beta cargo) - Importin beta complex formation; Importin subunit beta-1 (Homo sapiens), Q14974; Rango CFP/YFP FRET sensor + importin beta, 45 min; Potency, µM (series often up to 92.2 µM), inactives show top-dose inhibition of complex formation; actives 0.031% (n = 340,000); AID 540263, 2011; active = rising FRET ratio curve, often small or poorly fitted; inconclusive = mostly compound fluorescence or quenching in the first reads; inactive = flat curves in all reads;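 further: potency means the concentration at half of the fitted maximal effect; 0% = DMSO wells and 100% = buffer wells lacking importin beta; nearly all actives have a fitted effect of over 15% in size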
Target sequence (Q14974 whole entry, looked up): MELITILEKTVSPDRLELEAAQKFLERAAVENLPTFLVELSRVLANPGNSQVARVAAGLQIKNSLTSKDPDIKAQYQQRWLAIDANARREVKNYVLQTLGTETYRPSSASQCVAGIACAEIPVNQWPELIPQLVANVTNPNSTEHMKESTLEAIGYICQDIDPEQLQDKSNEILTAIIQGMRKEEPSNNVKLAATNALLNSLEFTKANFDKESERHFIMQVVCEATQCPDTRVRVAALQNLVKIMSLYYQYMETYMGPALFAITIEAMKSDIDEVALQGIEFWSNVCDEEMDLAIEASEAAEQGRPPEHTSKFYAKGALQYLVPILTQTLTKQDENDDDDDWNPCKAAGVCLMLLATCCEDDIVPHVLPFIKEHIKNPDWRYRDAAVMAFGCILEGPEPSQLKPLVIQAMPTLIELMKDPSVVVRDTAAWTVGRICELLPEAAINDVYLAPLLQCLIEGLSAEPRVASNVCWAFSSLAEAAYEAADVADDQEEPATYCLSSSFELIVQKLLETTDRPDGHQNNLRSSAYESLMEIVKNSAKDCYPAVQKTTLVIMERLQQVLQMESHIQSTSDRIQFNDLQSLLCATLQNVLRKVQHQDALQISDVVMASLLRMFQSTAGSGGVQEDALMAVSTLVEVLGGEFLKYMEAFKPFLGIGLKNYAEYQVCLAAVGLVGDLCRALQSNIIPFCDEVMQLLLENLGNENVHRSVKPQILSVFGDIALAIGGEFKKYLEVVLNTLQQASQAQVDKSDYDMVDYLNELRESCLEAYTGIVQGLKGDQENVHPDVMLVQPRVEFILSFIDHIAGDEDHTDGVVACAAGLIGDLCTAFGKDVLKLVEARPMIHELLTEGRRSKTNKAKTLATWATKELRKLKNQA
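Inhibition scored from the CFP 486 nm/YFP 530 nm FRET ratio 45 min after adding 0.125 microM importin beta to 50 nM Rango biosensor preincubated 5 min with compound (room temperature, PBS with DTT, Tween-20, BSA). No-importin wells as positive control.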
An asterisk follows results filed as active; ? = inconclusive; · = no result given; [ ] = another dose, or the depositor's remark.

Rango release inh,Rango-impB inh,miR-21 FLuc,GLA inh pH 4.5,SMILES
6%,0.0%,·,·,O=C(O)CNC(=O)C1(NC(=O)OCc2ccccc2)CCCC1
4%,-2.5%,3%,0,O=C(O)CNS(=O)(=O)c1ccc2c(c1)CCCC2
?,?,10%,-9,Cc1ccc(C(=O)Nn2c(N)c(S(=O)(=O)c3ccc(C)cc3)c3nc4ccccc4nc32)cc1
-1%,-3.1%,-48%,-12,COc1cc(C=O)ccc1OCCCOc1ccccc1[N+](=O)[O-]
-11%,1.7%,-3%,·,COc1ccccc1CNC(=O)N1CCN(c2ccccc2)CC1
31%,0.6%,-31%,-9,O=C(CS(=O)(=O)Cc1ccccc1)N1CCc2ccccc21
6%,2.7%,-7%,3,COc1ccccc1NC(=S)N/N=C/c1cccc(C)c1
8%,0.0%,-14%,-2,O=C(CCc1ccccc1)Nc1cccc([N+](=O)[O-])c1
12%,4.3%,-17%,·,Cc1cc(C)nc(NC(=O)c2cccs2)c1
3%,0.1%,1%,-1,COc1ccc(C(OC(=O)c2ccco2)C(=O)NC2CCCCC2)cc1OC (stereo unspecified)
15%,-4.5%,-1%,4,CNC(=O)CCCCC(=O)N/N=C/c1ccc(Cl)cc1Cl
-7%,0.8%,-22%,-6,O=C(Cn1cc(Cl)ccc1=O)c1ccc(Cl)cc1
12%,3.9%,-26%,·,CCCn1c(=O)c(C(=O)Nc2cccc(C)n2)c(O)c2ccccc21
-24%,-5.6%,1%,-12,O=C(CSc1nnc(-c2ccccc2)c(-c2ccccc2)n1)Nc1ncc(Cl)cc1Cl
3%,0.6%,-9%,1,CCOC(=O)c1c(C)[nH]c(C(=O)CSc2nnc(Nc3ccccc3F)s2)c1C
25%,-1.0%,-51%,-1,N/C(=N\c1nc2ccccc2o1)NC(=O)c1ccccc1
6%,-0.6%,-11%,2,C=CCC1S/C(=N/N=C/c2cccs2)NC1=O (stereo unspecified)
2%,2.1%,-2%,-6,O=C(CC(=O)N/N=C\c1ccc(F)cc1)NCCc1ccccc1
-3%,-0.6%,12%,-2,Cc1nn(S(=O)(=O)c2ccccc2)c(C)c1Sc1ccc([N+](=O)[O-])cc1
-7%,?,-10%,-19,O=C(N/N=C/c1ccco1)c1cccc(S(=O)(=O)Nc2ccccc2Cl)c1
10%,0.9%,-6%,·,COc1ccc(/C=C/C(=O)Nc2ccc(S(=O)(=O)Nc3onc(C)c3C)cc2)cc1OC
10%,-2.4%,0%,·,S=C(NCc1ccccc1)NCc1ccc(Cl)cc1
?,?,?,9,CC(=O)c1cccc(NS(=O)(=O)c2ccc(N/C=C/C(=O)c3ccc(F)cc3)cc2)c1
?,?,0%,-6,Cc1ccc2nc(N3CCN(C(=O)c4cccs4)CC3)c(C#N)cc2c1
3%,3.7%,-16%,·,Cc1oc2cc3oc(=O)c(CCC(=O)NC4CC4)c(C)c3cc2c1C
-15%,4.6%,·,·,CC(=O)c1cccc(N2C(=O)CC(N3CCN(S(=O)(=O)c4ccccc4F)CC3)C2=O)c1 (stereo unspecified)
9%,0.0%,-3%,-5,O=[N+]([O-])c1ccc2c(c1)[nH]c(=S)n2-c1ccccc1
2%,0.2%,-24%,3,CCOc1ccc(-c2ccc(SCC(=O)NCC3CCCO3)nn2)cc1 (stereo unspecified)
4%,-2.0%,-9%,0,Cc1ccc(S(=O)(=O)N2CCCCC2)cc1NC(=O)CSc1nnc(N)s1
1%,-0.6%,·,·,O=C(OCC#CCSc1nnc(-c2cccc3ccccc23)o1)c1ccc2ccccc2c1
4%,4.4%,·,·,CC1(C)CC(NC(=O)C2CCN(S(=O)(=O)c3ccc(Cl)c(C(F)(F)F)c3)CC2)CC(C)(C)N1
?,?,-67%,-8,COc1cccc(C(=O)/C=C/Nc2ccc(S(=O)(=O)Nc3ncccn3)cc2)c1
-6%,4.9%,-7%,4,COc1cc(NC(=O)COc2ccc(-n3cnnn3)cc2)c(OC)cc1Cl
-6%,0.9%,-1%,3[21.1 µM],C=CCOCCN1C(=O)C2C3C=CC(C2C1=O)C1C2C(=O)N(CCOCC=C)C(=O)C2C31 (stereo unspecified)
0%,4.9%,-1%,9,O=C(Nc1ccccc1NC(=O)C1CCCO1)c1ccco1 (stereo unspecified)
-10%,-1.8%,-2%,9,CN(C)S(=O)(=O)Oc1ccccc1C(=O)Nc1ccc(F)cc1F
22%,-3.1%,4%,·,COc1ccc(C(=O)N(C)C2CCCN(Cc3ccccc3F)C2)cc1C (stereo unspecified)
14%,-0.1%,-20%,8,COc1ccc2oc(-c3cccc(NC(=O)CSc4ccc(Cl)cc4)c3)nc2c1
-3%,1.8%,-6%,·,NC(=O)CSc1nc2ccccc2c(=O)n1-c1ccccc1
17%,4.4%,-7%,0,COC(=O)c1cc(N=Nc2c(C)[nH]c3ccccc23)cc(C(=O)OC)c1
28%,-0.1%,·,·,COc1cccc(C=NNC(=O)C(C)SC(C)C(=O)NN=Cc2cccc(OC)c2)c1 (stereo unspecified)
1%,-0.2%,0%,6,CC(NC(=O)C1CC12CCC2)c1ccccc1 (stereo unspecified)
-11%,1.7%,?,3,Cc1ccc(S(=O)(=O)c2c(C)nn(C(C)(C)C)c2OC(=O)c2cccs2)cc1
0%,-3.5%,1%,8,Cc1ccc(C(=O)NC(=S)N2CC(C)OC(C)C2)cc1[N+](=O)[O-] (stereo unspecified)
18%,0.5%,-6%,·,CC(C)CCNC(=O)c1cc2c(=O)[nH]c3ccccc3c2s1
-7%,0.1%,15%,-11,Cc1nn(-c2ccccc2)c2sc(C(=O)N(CC(=O)NC(C)(C)C)Cc3ccco3)cc12
10%,1.5%,1%,·,O=C(Cc1ccccc1)NNC(=O)C1CC=CCC1 (stereo unspecified)
1%,-0.2%,·,·,CNc1snc(C)c1C(=O)OC(C)C(=O)Nc1cccc(OC)c1 (stereo unspecified)
-9%,-13%,-7%,3,COc1ccc(NS(=O)(=O)c2ccc(NC(=S)NC(=O)c3cccc(F)c3)cc2)nn1
-4%,1.2%,-3%,-9,CC1=CCC[C@@H]2[C@@](C)(CC/C(C)=C/C(=O)O)[C@H](C)CC[C@@]12C

(more compounds)
Rango release inh,Rango-impB inh,miR-21 FLuc,GLA inh pH 4.5,SMILES
0%,-0.4%,3%,4,CN(C)S(=O)(=O)c1ccc(NC(=O)N2CCOCC2)cc1
-15%,5.5%,20%,2,COc1cc(C2=NOC(C(=O)NCc3ccco3)C2)cc(OC)c1OC (stereo unspecified)
-2%,2.3%,-6%,4,CCCCOC(=O)CSc1nnc(N)s1
5%,3.6%,0%,-6,CCOC(=O)Cc1c(C)nc2c(-c3ccc(Cl)cc3)c(C)nn2c1C
2%,5.8%,·,·,CC12CCC(=O)N1C(C(=O)Nc1ccc(Cl)c(S(=O)(=O)N3CCCCC3)c1)CS2 (stereo unspecified)
22%,3.1%,·,·,CCCN(CC(=O)Nc1ccccc1C)C(=O)c1cccc(S(=O)(=O)N2CCN(c3ccccc3)CC2)c1
-7%,1.4%,24%,-6,O=[N+]([O-])c1ccc(O)c(/C=N/Nc2ccccn2)c1
-7%,-1.2%,0%,1,C[C@@H](C(=O)N1CCNCC1)n1cc(CCCN=C(N)N)nn1
-17%,0.4%,6%,·,COc1ccc(C(=O)N(C)CCCC2CCCC2)cc1OC1CCN(C(C)C)CC1
-10%,-1.7%,2%,3,COC(=O)CN1C(=O)N/C(=C/c2cc(OC)c(OC)cc2C)C1=O

Sorted by molecular weight (low to high): some entries from above.
Rango release inh,Rango-impB inh,miR-21 FLuc,GLA inh pH 4.5,SMILES
-7%,1.4%,24%,-6,O=[N+]([O-])c1ccc(O)c(/C=N/Nc2ccccn2)c1
-7%,-1.2%,0%,1,C[C@@H](C(=O)N1CCNCC1)n1cc(CCCN=C(N)N)nn1
-10%,-1.7%,2%,3,COC(=O)CN1C(=O)N/C(=C/c2cc(OC)c(OC)cc2C)C1=O
5%,3.6%,0%,-6,CCOC(=O)Cc1c(C)nc2c(-c3ccc(Cl)cc3)c(C)nn2c1C
-15%,5.5%,20%,2,COc1cc(C2=NOC(C(=O)NCc3ccco3)C2)cc(OC)c1OC (stereo unspecified)
22%,3.1%,·,·,CCCN(CC(=O)Nc1ccccc1C)C(=O)c1cccc(S(=O)(=O)N2CCN(c3ccccc3)CC2)c1

The list goes on:
Rango release inh,Rango-impB inh,miR-21 FLuc,GLA inh pH 4.5,SMILES
2%,0.0%,·,·,CC(=O)c1ccc(OCC(=O)Nc2cccc(S(=O)(=O)N3CCCC3)c2)cc1
-7%,-2.1%,2%,13,CCC(C)N(C(=O)COC(=O)CNC(=O)c1ccccc1F)C1CCS(=O)(=O)C1 (stereo unspecified)
14%,3.0%,-1%,·,Cc1ccc(OC(=O)c2ccc([N+](=O)[O-])cc2Cl)cn1
7%,1.6%,-6%,-4,COc1cccc(C2=NOC(C(=O)NCc3ccccn3)C2)c1 (stereo unspecified)
-9%,-3.4%,-5%,-8,Cc1ccc(C(=O)NC(=S)Nc2cc(C(F)(F)F)ccc2Cl)cc1
-9%,5.3%,0%,-5,Cc1ccc(S(=O)(=O)N2CCCN(S(=O)(=O)c3ccc(C)c(C)c3)CC2)cc1C
-6%,-0.9%,-21%,5,C/C(CC(=O)Nc1ccc(C)c(Cl)c1)=N\NC(=O)Cc1cccs1
-10%,-1.8%,·,·,Cc1ccc(NC(=O)CCCOc2ccccc2)cc1S(=O)(=O)N1CCOCC1
?,?,·,·,CC(C)(C)CNC(=O)c1cccc2c1C(=O)c1ccc(-c3cc4ccccc4o3)cc1S2(=O)=O
-12%,5.9%,-1%,-9,Cc1ccc(NCc2cccnc2)cc1
?,?,-56%,-1,CCN1C(=O)S/C(=C\c2ccc(N3CCOCC3)cc2C)C1=O
-11%,0.7%,-7%,10,O=[N+]([O-])c1cc(-c2ccn[nH]2)ccc1Cl
?,?,-1%,·,N#CCNC(=O)c1nn2c(C(F)(F)F)cc(-c3ccccc3)nc2c1Br
13%,-3.7%,3%,-7,Cc1nn(Cc2ccc(Cl)cc2)c(C)c1NC(=O)C(c1ccccc1)c1ccccc1
-4%,0.4%,-2%,2,O=C(C/C=N\OCc1ccc([N+](=O)[O-])cc1)Nc1ccccc1
5%,-0.2%,·,·,O=C1Cc2cc(S(=O)(=O)Nc3ccc(N4CCOCC4)cc3)ccc2N1
-6%,3.9%,-1%,4,COc1ccccc1NC(=O)CC(NCc1ccccc1)C(=O)O (stereo unspecified)
-12%,3.1%,-1%,4,CCOc1ccc(-n2c(Cc3cc(=O)[nH]c(=O)[nH]3)nnc2SCC(=O)Nc2nnc(C)s2)cc1
15%,-9.8%,-5%,1,COC(=O)c1cccc(N(C(=O)CNC(=O)c2ccco2)C(C(=O)NC2CCCC2)c2ccco2)c1 (stereo unspecified)
-6%,-0.3%,-4%,5,COc1ccc(OC)c(S(=O)(=O)Nc2cc(OC)c(Cl)cc2OC)c1
1%,2.7%,1%,-7,COCCCNC(=O)CN(Cc1ccc(Cl)cc1)S(C)(=O)=O
-18%,7.8%,-2%,·,CC(=O)Oc1ccc(/C=C2/SC(=S)N(Cc3ccccc3)C2=O)cc1
11%,3.4%,·,·,COc1ccccc1OCC(=O)Nc1cccc(S(=O)(=O)NC2=NCCCCC2)c1
·,·,-2%,5,O=C(OCCN1C(=O)c2cccc3c(N4CCOCC4)ccc(c23)C1=O)c1cc(Cl)cc(Cl)c1
-13%,0.5%,4%,-3,COC(=O)CSc1nc2ccc(NC(=O)CSc3nnnn3Cc3ccccc3)cc2s1
3%,1.3%,1%,5,O=C(O)CCCC(=O)N1CCC(C(O)(c2ccccc2)c2ccccc2)CC1
-6%,?,·,·,C#CCOCCOCCOCCNc1nc(N2CCN(C(=O)C([C@@H](C)O)n3cc([C@@H](N)CCCCN)nn3)CC2)nc(N2CCN(C(=O)[C@H](CCCCN)n3cc([C@@H](N)CC(N)=O)nn3)CC2)n1 (stereo partly specified)

Some of the compounds tested; the hit share may differ from the screen's.
